# PrP UTR inh – inhibition of PrP 5' UTR reporter expression | inhibition, % (no concentration beside the values) | cell-based PrP 5' UTR mRNA reporter, plate reader | 0.35% of 340,000 active;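 active = every replicate at 50% or more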;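 note: 0 = median of the neutral control wells; tested in H4 reporter cells; numbers are from one replicate; inactives centre near -14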
# Mtb hypoxia rep – inhibitors of hypoxia-regulated fluorescent reporter in Mycobacterium tuberculosis; M. tuberculosis hypoxia-regulated fluorescent reporter, fluorescence; fluorescence inhibition, % (no concentration beside the values); 0.1% of 300,000 active;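 active = 35 to 45% if threefold the growth effect, above 45% if 1.5-fold the growth effect; inactive = the rest, general growth blockers included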;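 note: wells of about 50 µL received 100 nL stock; 0% = vehicle wells and 100% = reference inhibitor wells; whole bacteria with a GFP reporter of the hypoxia response; strong numbers were not always called active; many hits fall short of the cut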
# ugtP null kill – growth inhibition of S. aureus ugtP deletion strain | S. aureus RN4220 ugtP deletion, OD600 growth, 16 h; some inactives read as strong as hits | growth inhibition, % (no concentration beside the values) | 0.54% of 330,000 active;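 active = z-score under -3 and OD600 up to 0.15 on both plates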;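 note: plate controls were untreated wells for no effect and antibiotic for full effect; wells of about 80 µL received 100 nL stock; the first replicate is given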
# BJeLR lethal – kills HRASV12-expressing BJeLR cells; BJeLR (HRASV12) viability, CellTiter-Glo ATP luminescence, 48 h; reference of the scale not given here; inhibition, % (no concentration beside the values); 0.17% of 300,000 active; AID 1554;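 active = replicate mean above 50%; inconclusive = above 50% but judged a plate artefact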;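 note: 50 nL library stock added to about 25 µL; numbers are from one replicate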
# Autofluor counter – compound fluorescence in toxin protease inhibitor counterscreen. compound autofluorescence counterscreen, microsphere flow cytometry; active compounds read high. fluorescence intensity (no concentration beside the values). 3.1% of 360,000 active. AID 624483;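 active = at least 3 SD above the mean of all compounds, about 16000 in these data; inconclusive = too few beads counted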;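 note: 100 nL of 1 mM stock went into each well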
# Sa RN4220 lethal – S. aureus RN4220 growth inhibition. OD600, 16 h. inhibition, % (no concentration beside the values). 0.33% of 330,000 active;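 active = z-score of -3 or lower and OD600 up to 0.18 on both plates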;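 note: plate controls were untreated cells for no effect and reference antibiotic for full effect; stock transfer was 100 nL into about 80 µL; one replicate is shown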
# Mtb hypoxia rep growth – second read-out of Mtb hypoxia rep, no call of its own (marks repeat the call); growth inhibition, %; measured here: M. tuberculosis growth (absorbance);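 0% = vehicle and 100% = reference antibiotic; read after six days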
# Active calls of the source: *; u = inconclusive; x = no result given.
SMILES,PrP UTR inh,Mtb hypoxia rep,Mtb hypoxia rep growth,ugtP null kill,BJeLR lethal,Autofluor counter,Sa RN4220 lethal
Cc1ccc(NCC(=O)NN=C/C(Br)=C/c2ccccc2)cc1,x,3,1,-10,x,x,1.6
CCC(=O)Oc1ccc2oc(=O)cc(C)c2c1,-19,7,-1,3,6,8499,0.5
O=c1c2cc3c(=O)n(-c4ccccc4O)c(=O)c3cc2c(=O)n1-c1ccccc1O,-4,x,x,x,3,4439,x
COC(=O)c1ccc(NC(=O)CN2C(=O)CNC2=O)cc1,-18,x,x,-3,1,4799,0.9
O=C(O)CN1C(=O)/C(=C/c2ccccc2Br)Oc2ccccc21,-9,-1,-1,-1,7,3186,7.9
CCN(CC)c1ccc(C(=O)NC(=S)N2CCN(Cc3ccc4c(c3)OCO4)CC2)cc1,-13,-8,3,1,13,22907*,-2.6
CN(C(=O)CCOc1ccccc1)c1c(N)n(Cc2ccccc2)c(=O)[nH]c1=O,2,6,12,3,-5,5506,1.2
CC(C)c1cc(-c2cc(C(=O)Nc3ccccc3)on2)nc(NC2CCCC2)n1,-7,8,4,-6,-8,3395,3.2
Brc1ccc(/C=N/Nc2ccccn2)cc1,-34,x,x,x,8,2468,x
COc1ccccc1CNC(=O)CN1C(=O)c2cccc(N)c2C1=O,-27,4,-1,2,-1,5203,2.8
O=C(CO/N=C/c1ccc(Cl)cc1Cl)NNC(=O)c1ccc(Cl)cc1Cl,-7,x,x,x,0,4318,x
O=C(O)CCN=CC1=C(O)CC(c2ccccc2)CC1=O (stereo not drawn),-10,-5,-1,4,-15,3871,0.7
COc1ccc(OC)c(NC(=O)COC(=O)CSc2ccc(Cl)cc2)c1,-6,4,0,0,-1,9873,2.9
CCOCC(=O)Nc1ccc([N+](=O)[O-])cc1OC,-9,1,-1,-5,3,3533,-3.4
COc1ccc(NC(=O)C2(c3cccs3)CCOCC2)cc1,-3,2,-8,-10,8,6395,1.1
O=C(N/N=C/c1ccc2c(c1)OCO2)C(=O)Nc1cccc(Cl)c1,-34,x,x,x,-11,3107,x
O=C1CN(C(=O)CSc2nnnn2-c2ccc(Cl)cc2)c2ccccc2N1,1,-13,-4,0,-14,21884*,2.0
CCCn1nc(C(=O)NNC(=O)CCCOc2ccc(C)cc2)c2ccccc2c1=O,-19,-8,-4,1,1,6148,4.4
CCN(c1cccc(C)c1)S(=O)(=O)c1cnc[nH]1,-18,13,12,3,-5,10496,11
C=CCn1c(SCC(=O)Nc2ccc3c(c2)OCCO3)nnc1-c1ccco1,-17,9,6,5,-1,16334*,3.2
Cc1c(C(=O)NC(=S)N(Cc2ccccc2)c2ccccn2)cccc1[N+](=O)[O-],3,3,11,1,x,3833,2.8
O=C(CCCc1nc(-c2ccccc2)no1)NC1CCCCC1,-3,-3,4,1,-4,5459,2.6
Cc1ccc(NC(=O)CN(C)C(=O)COc2ccccc2-c2ccccc2)cc1,-20,11,7,-6,x,3016,1.6
COC(C(=O)Nc1ccccc1C(=O)N1CCOCC1)c1ccccc1 (stereo not drawn),-41,0,-3,-1,-12,5603,1.0
CCCC(O)(c1ccc(CC)cc1)C(CN1CCOCC1)c1ccccc1 (stereo not drawn),-15,5,8,1,3,3838,2.1
SMILES,PrP UTR inh,Mtb hypoxia rep,Mtb hypoxia rep growth,ugtP null kill,BJeLR lethal,Autofluor counter,Sa RN4220 lethal
CSc1nc2c(c(=O)[nH]1)C(c1ccc(Cl)cc1)CC(=O)N2 (stereo not drawn),-6,10,2,-1,8,u,1.2
CCOC(=O)c1c(NC(=O)CNC2CCCCC2)sc(C)c1C,-32,11,15,12,3,3315,7.8
NC(=S)N=Nc1c(O)[nH]c2ccc(F)cc12,5,-7,-14,-5,-3,2538,5.3
COc1ccc(-c2oc(=O)c3cc(OC)c(OC)cc3c2/C=C/c2ccc(F)cc2)cc1,-13,7,1,-7,x,4168,-9.4
O=C(CN(CCCN1CCOCC1)C(=O)Cn1nnc(-c2ccc(F)cc2)n1)NC1CCCCC1,-26,-3,8,-3,2,11034,1.4
CN(C)C(=O)NC1C=CS(=O)(=O)C1 (stereo not drawn),-13,9,-1,5,x,7948,5.9
CCOC(=O)c1cnc(SC)nc1Oc1cccc(NC(=O)c2ccc(C)cc2)c1,1,x,x,36,0,4652,-3.1
COc1cc(/C=N/n2c(-c3ccccc3)n[nH]c2=S)cc(OC)c1OC,-26,x,x,x,-2,2917,x
Cc1ccc(C(=O)NCc2n[nH]c(=S)n2-c2ccccc2)cc1[N+](=O)[O-],-6,6,6,2,-1,1882,0.1
COC(=O)Nc1ccc(S(=O)(=O)Nc2cnc3ccccc3n2)cc1,-13,0,0,-10,6,4522,2.7
Cn1c(CN2CCOCC2)nnc1SCC(=O)Nc1ccc2c(c1)OCCO2,6,-4,14,-5,-3,10485,1.7
CCN(Cc1ccccc1)C(=O)c1ccc(SC)cc1OC,-18,20,16,-3,9,4497,11
COc1ccc2oc(C(=O)Nc3ccc(C)cn3)c(C)c2c1,-98,9,13,-2,6,u,3.3
COc1ccc(C(=O)/C=C/c2ccc(F)cc2)c(OC(=O)c2ccc([N+](=O)[O-])cc2)c1,-37,x,x,6,14,3020,-7.7
CCn1c(CC(=O)Nc2ccccc2Cl)nnc1SCC(=O)NC1CCCC1,-7,3,-6,5,-4,3045,2.5
C=CCn1c(SC(C)C(=O)NCC2CCCO2)nnc1-c1ccc(OC)cc1 (stereo not drawn),-6,5,5,9,x,3630,4.2
CC(C(=O)Nc1ccccc1)N(C)CCOc1ccc(Br)cc1 (stereo not drawn),-21,3,9,2,-3,2887,1.7
O=C(CSC1=NS(=O)(=O)c2cc(Cl)ccc2N1)NCCc1ccccc1,-13,-9,-4,2,6,4427,-1.7
CC1=C(C#N)CCC(=O)N1Cc1c(C)cc(C)cc1C,0,x,x,4,3,2134,8.4
O=C(O)CCN1C(=O)c2ccccc2Sc2ncccc21,-5,-1,-4,8,-6,3073,1.2
CC(C)[C@H](NC(=O)c1ccccc1F)C(=O)OCC(=O)NC1CC1,11,-5,2,-1,x,3747,-0.5
COC(=O)C1=C(C(=O)c2ccc(C)cc2)C(c2ccc(OC)c(OC)c2)n2nnnc2N1 (stereo not drawn),-18,x,x,x,-8,3334,x
C#CCOCCOCCOCCNc1nc(N2CCN(C(=O)C(Cc3ccc(O)cc3)n3cc(C(N)CC(C)C)nn3)CC2)nc(N2CCN(C(=O)C(CCC(=O)O)n3cc(C(N)C(C)CC)nn3)CC2)n1 (stereo not drawn),x,12,13,-7,x,x,3.2
O=C(CN1CCN(C(=O)c2ccco2)CC1)Nc1ccc(Cl)c(S(=O)(=O)N2CCOCC2)c1,8,-2,5,4,-3,3934,3.8
COc1ccc(C2c3[nH]c4ccccc4c3CCN2CCCn2cccn2)cc1C (stereo not drawn),-13,1,-3,10,-8,5865,2.3
SMILES,PrP UTR inh,Mtb hypoxia rep,Mtb hypoxia rep growth,ugtP null kill,BJeLR lethal,Autofluor counter,Sa RN4220 lethal
COc1cc(-c2nc3cnccn3c2Nc2ccc(C(C)C)cc2)ccc1O,-20,-3,-3,-8,-4,8408,13
CC(O)c1ccc(Oc2cnccn2)cc1 (stereo not drawn),-20,6,8,6,-5,2829,-0.3
CCOc1ccc(NC(=O)CSc2nnnn2C2CCCC2)cc1,-25,-4,-1,-2,-15,3669,-2.5
O=[N+]([O-])c1csc2ccccc12,-32,14,10,3,x,3821,3.5
O=C(COC(=O)c1ccc2ncsc2c1)NCc1ccc(Cl)cc1,-12,3,8,5,x,8411,1.6
O=C(CN1CCC(n2nnc3cc(C(F)(F)F)ccc32)CC1)N1CCc2ccccc21,-20,7,2,5,6,6839,-2.0
CC(=NO)c1cccc(Br)c1,x,0,-3,2,x,x,5.5
COCCCNC(NC(=O)c1ccc(Cl)cc1)C(Cl)(Cl)Cl (stereo not drawn),-1,7,4,-4,15,2179,2.9
CN(Cc1ccccc1)C(=S)Nc1ccc(OC(F)F)cc1,-31,-5,2,-4,3,2741,2.0
O=S(=O)(c1ccc(N2CCCC2)cc1)C(F)(F)F,-10,0,-9,-2,1,16476*,11
Cc1ccc(OCC(=O)O/N=C(\N)c2ccncc2)c(C)c1,-57,11,3,11,-3,5272,4.9
NC(=O)c1ccc(NC(=O)COC(=O)CCc2ccc(S(=O)(=O)N3CCCCC3)cc2)cc1,-30,5,3,1,11,5082,1.5
O=C(Cn1nc(-c2ccccc2)ccc1=O)NCC1COCCO1 (stereo not drawn),-36,5,3,9,13,19171*,4.1
OCCN(CCO)c1nc2ccccc2[nH]1,-10,13,-9,3,3,4929,2.9
C[C@H](NS(=O)(=O)OCC(Cl)(Cl)Cl)C1CC1c1ccccc1 (stereo partly drawn),-8,x,x,x,-4,2787,x
COc1ccc(C(=O)N(C)CCCC2CCCC2)cc1OC1CCN(C(C)=O)CC1,-26,5,8,7,0,5485,3.2
C=C[C@]1(C)CC1C(NP(=O)(c1ccccc1)c1ccccc1)c1ccccc1 (stereo partly drawn),x,-2,5,-5,x,x,-2.9
Cc1ccc(C(=O)N2CCOCC2)cc1[N+](=O)[O-],-7,9,1,-2,-1,2050,2.1
CCOC(=O)c1c(NC(=O)c2cnn3c2NC(c2cccc(OC)c2)CC3C(F)(F)F)sc2c1CCCC2 (stereo not drawn),-12,10,-11,9,1,2397,4.9
COc1ccc(C(CNC(=O)c2cc(C)oc2C)N2CCOCC2)cc1 (stereo not drawn),20,-10,-11,-6,5,16136*,-1.0
Cc1ccc(C)c(S(=O)(=O)Nc2ccc(C(N)=O)cc2)c1,-24,3,-1,-2,3,3931,4.0
CN(C)S(=O)(=O)c1cccc(NC(=O)CNCc2ccccn2)c1,-3,13,3,5,2,3337,-1.3
O=C(CN1CCOCC1)NN=Cc1ccc(C(=O)O)cc1,x,2,-4,0,x,x,-0.2
O=C(Nc1cccc(C(=O)N2CCOCC2)c1)c1ccc([N+](=O)[O-])cc1,-91,11,3,13,-8,6613,1.1
CCOc1ccc(-c2nnc(-c3cccnc3)o2)cc1OCC,-18,13,13,-3,-1,8853,6.5
SMILES,PrP UTR inh,Mtb hypoxia rep,Mtb hypoxia rep growth,ugtP null kill,BJeLR lethal,Autofluor counter,Sa RN4220 lethal
CCC(C)NC(=S)Nc1ccc2nc(N3CCOCC3)cc(C)c2c1 (stereo not drawn),-11,-3,2,-1,1,3742,5.1
Cc1ccc(C(=O)Nc2ccc3[nH]c(=O)[nH]c3c2)c(C)c1,6,14,3,-1,3,4860,-1.4
Cc1ccc(CN2CCN(C3CCC3)CC2CCO)cc1 (stereo not drawn),-9,12,4,10,-5,x,5.1
CCN(CC1COc2ccccc2O1)C(=S)NC1CC2CCC1C2 (stereo not drawn),-18,-2,12,-14,8,3215,-2.8
COc1cccc(CNC(=O)c2ccc(CS(=O)c3ccccc3)o2)c1 (stereo not drawn),-11,11,2,4,9,5481,1.8
COc1ccc(Oc2nc(SC)nc3ccccc23)cc1,-9,x,x,5,-1,2318,1.2
CCOC(=O)c1c(C)[nH]c(C)c1S(=O)(=O)NCC1CCN(Cc2ccccc2F)CC1,-13,-1,10,4,8,6177,1.3
COc1cc2[nH]c(=S)nc(Nc3ccc(NC(C)=O)cc3)c2cc1OC,-21,-9,-20,-4,-11,2150,-0.8
COc1ccc(S(=O)(=O)N(C)c2c(C)n(C)n(-c3ccccc3)c2=O)cc1OC,-15,5,10,4,10,3914,8.4
CCN(CC(=O)Nc1ccc(S(=O)(=O)N2CCOCC2)cc1)Cc1ccccc1,-13,6,3,10,8,u,4.6
O=c1c(CN2CCN(c3cccc(Cl)c3)CC2)coc2c(Cl)cc(Cl)cc12,-8,5,3,-12,13,11722,9.3

# From PubChem
